MT1-MMP promoter = MT1-MMP gene expression reporter suppression – cell-based, luciferase reporter, luminescence (AID 618) | calls from a first round at 10 µM; hits with a dose series show EC50 in µM | MT1-MMP promoter luciferase reporter cells, luminescence | hit rate 0.62% among 87,000;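 active = over half of the reporter light lost at 10 µM or EC50 under 50 µM; inactive = the rest and hits that failed the dose series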;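 also: actives suppress MT1-MMP promoter-driven transcription so potencies describe inhibitors; HT1080 fibrosarcoma cells; overnight exposure; toxic or luciferase-blocking compounds were not removed from the actives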
Hsc70 = Hsc70 inhibitors, probe displacement, primary screen, biochemical, fluorescence polarization (AID 568) | Hsc70 fluorescence polarization, probe displacement; higher % means a stronger effect; strong numbers were not always called active | displacement, % at 20 µM, or IC50 in µM where a hit was titrated | 83,000 tested, under 10 active;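 active = displacement above 50% without optical interference and an IC50 on retest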;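 also: ATPase domain with a fluorescein-tagged ATP probe; 0% = vehicle and 100% = excess ADP; read after one hour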
WNV protease inh = inhibitors of West Nile virus NS2B-NS3 protease; hit rate 0.18% among 65,000; WNV NS2B-NS3 protease, fluorogenic substrate Ex360/Em465; stronger effect = lower value; z-score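 (tested at a level between 10 and 100 µM)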;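 active = z-score at -3 or under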;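 also: score is relative to mean and spread of the compound wells of a plate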
Target sequence (P06935 1371-1501 limits assumed): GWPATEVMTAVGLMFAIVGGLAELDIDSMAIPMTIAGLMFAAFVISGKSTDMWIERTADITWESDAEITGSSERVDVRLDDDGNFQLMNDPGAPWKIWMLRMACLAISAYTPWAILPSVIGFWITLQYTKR
Target sequence (P06935 1502-1679 limits assumed): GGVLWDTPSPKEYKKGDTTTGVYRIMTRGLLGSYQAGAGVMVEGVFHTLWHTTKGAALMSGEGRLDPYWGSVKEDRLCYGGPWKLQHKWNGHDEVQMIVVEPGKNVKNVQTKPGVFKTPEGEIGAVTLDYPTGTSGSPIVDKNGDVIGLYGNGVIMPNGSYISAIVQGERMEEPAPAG
Starred values were filed as active, the others as inactive; i = inactive; . = not tested or not shown.

SMILES	MT1-MMP promoter	Hsc70	WNV protease inh
CCN(CC)Cc1c(O)c(Cl)cc2c3c(c(=O)oc12)CCCC3	i	5.5%	.
COCCn1c(SCC#N)nnc1-c1ccccc1	i	-9.3%	1.2
O=C(O)c1ccc(NS(=O)(=O)c2ccc(Cl)c(Cl)c2)cc1O	i	-0.5%	-0.84
Cc1nn(-c2ccccc2)c2c1P(=O)(O)/C(=C1\N(C)c3ccccc3C1(C)C)C=N2	i	-0.8%	1.4
CCOC(=O)c1sc(NC(=O)CSc2nncs2)c(C(=O)OCC)c1C	i	-20%	1.1
c1ccc(C2Nc3ccccc3-c3nc4ccccc4n32)cc1 (stereo unspecified)	i	2.7%	.
CCOc1cc(-c2nc(-c3ccccc3OC)no2)cc(OCC)c1OCC	i	-0.9%	-0.62
CCN(CC)CCNC(=O)c1nn(-c2ccc(C)cc2)c(=O)c2c1c1ccccc1n2C	i	-0.9%	-0.1
Cc1ccc(N(CC(=O)NCCSCc2ccco2)S(C)(=O)=O)cc1	i	4.1%	.
O=C(Nc1cccc(C(=O)N2CCCC2)c1)c1ccccc1	i	4.1%	1.4
O=C(O)CCc1ccc(-c2cccs2)n1NC(=O)c1ccc(Cl)cc1Cl	i	0.9%	.
CC1=CC(C)(C)N2C(=O)C3(C(C#N)=C(N)Oc4cc(O)ccc43)c3cccc1c32 (stereo unspecified)	i	-4.0%	0.32
CCOC(=O)c1[nH]c(C)c(C(=O)OCCN2C(=O)c3ccccc3C2=O)c1C	i	-1.8%	2.3
CC1=C(C(=O)OCc2ccccc2)C(c2ccsc2)C(C#N)=C(N)O1 (stereo unspecified)	i	2.4%	.
CN/C=C1\C(=O)C(C)(C)Oc2ccc3ccc(=O)oc3c21	i	3.9%	-1.9
CC(=O)C1=C(O)C(=O)N(Cc2ccco2)C1c1ccccc1 (stereo unspecified)	i	1.7%	-1.1
N#Cc1ccc(-c2nnnn2-c2ccc3c(c2)OCO3)cc1	i	6.2%	-0.76
Cc1nnc(SCC(=O)NCCOc2ccc(Cl)cc2)n1-c1ccccc1	i	0.2%	-1.5
CC(OC(=O)c1nsc(Cl)c1Cl)C(=O)NC(C)(C)C (stereo unspecified)	i	0.7%	.
CCNC(=O)c1ccccc1NC(=O)c1cccc(S(=O)(=O)N2CCOCC2)c1	i	8.1%	.
CCCn1c(=O)c2[nH]c(C3CCCC3)nc2n(CCC)c1=O	i	2.0%	0.05
Cc1nn(-c2ccccn2)c2c1C(c1ccsc1)C1=C(CCCC1=O)N2 (stereo unspecified)	i	-2.4%	-0.97
COc1ccc(-c2c(NC(=O)C(C)C)n(C)c3ccccc3c2=O)cc1	i	5.5%	.
COC(=O)COc1ccc(S(=O)(=O)NCc2ccco2)cc1Cl	i	-1.3%	1
Cc1ccc2c(C)nc(NC3=NCN(CCc4ccccc4)CN3)nc2c1	i	0.0%	-0.62
COC(=O)C1CCCN1S(=O)(=O)c1ccc2ccccc2c1 (stereo unspecified)	i	-2.0%	-0.23
O=C1C(Cl)=C(NCC2CCCO2)C(=O)N1c1ccccc1 (stereo unspecified)	i	1.2%	0.73
O=C1CCCCCC1C1(O)C(=O)Nc2ccc(Br)cc21 (stereo unspecified)	i	-4.7%	-0.78
CCSc1nnc(N(CCC#N)CCC#N)s1	i	-1.6%	0.26
CC(C)N(C(=O)CSc1nnc(NC(=O)c2cccs2)s1)C(C)C	i	4.4%	.
CCOC(=O)CSc1nc(N(C)C)nc(N(C)C#N)n1	i	7.9%	-0.45
O=C(CSc1nccc(=O)[nH]1)N1c2ccccc2CCc2ccccc21	i	-4.1%	0.96
c1coc(CNc2ncnc3nc[nH]c23)c1	i	6.9%	1.1
Cc1cc(C)nc(SCc2ccc(C(=O)O)o2)n1	i	5.0%	-1.3
C/C(Cl)=C/CN1C(=O)C2C3C=CC(C3)C2C1=O (stereo unspecified)	i	2.8%	-1.1
Cc1ccc(C2=[N+]([O-])C3(CCCCC/C3=N\NC(N)=S)N(O)C2(C)C)o1 (stereo unspecified)	i	4.5%	.
COCCCNC(=O)c1cccc(C(=O)NCCCOC)c1	i	1.7%	-0.79
COc1ccc(C(c2nnnn2CC2CCCO2)N2CCN(c3cccc(C)c3C)CC2)cc1 (stereo unspecified)	i	-3.3%	-0.78
Cc1cc(N2CCCC2)nc(SCC(=O)c2ccccc2)n1	i	-0.6%	.
CCOc1ccc(-c2nc(N)ncc2Oc2cccc(OC)c2)c(O)c1	i	0.6%	.
Cc1onc(-c2ccccc2)c1C(=O)Nc1ccc2c(c1)OCO2	i	-1.1%	1.5
C=CCSC1=C(C#N)C(c2ccc(OCC)cc2)CC(=O)N1 (stereo unspecified)	i	0.9%	0.35
Cc1cc2n(n1)SC(Nc1cc(Cl)ccc1Cl)N2 (stereo unspecified)	i	4.6%	.
COc1ccc(C2C(C(C)=O)=C(O)C(=O)N2CCN(C)C)cc1OC (stereo unspecified)	i	-0.8%	-0.23
CCn1c(=O)cc(OCC(=O)NCCCN2CC(C)CC(C)C2)c2ccccc21 (stereo unspecified)	i	-4.2%	-0.18
CC(=O)Nc1ccc2nc(SCC(=O)O)sc2c1	i	-11%	0.56
Cc1ccc(N2CN=c3s/c(=C\c4ccccn4)c(=O)n3C2)cc1	i	6.1%	3
Cc1ccc(S(=O)(=O)CCC(=O)N2CCc3ccccc32)cc1	i	2.6%	.
CCOc1ccc(N2C(=O)CC(NC3CCCCNC3=O)C2=O)cc1 (stereo unspecified)	i	-0.6%	.
Oc1ccc(N2CCN(C(c3cccs3)c3nnnn3CCc3ccccc3)CC2)cc1 (stereo unspecified)	i	-2.2%	0.05
C=CCn1c(SCC(=O)NC2CCCCC2)nnc1C(C)NC(=O)c1cccs1 (stereo unspecified)	i	0.8%	0.44
O=C(c1cccnc1)N1CCc2ccccc21	i	1.2%	0.38
O=C(CCSc1ccccc1)Nc1ncccn1	i	0.3%	0.72
COC(=O)c1ccccc1NC(=O)C1CC(c2ccccc2O)=NO1 (stereo unspecified)	i	0.3%	0.54
COc1ccc(N2C(=O)CC(N3CCN(C4CCc5ccccc5C4)CC3)C2=O)cc1 (stereo unspecified)	i	-0.5%	0.69
COc1cccc(C(c2sc3nc(C)nn3c2O)N2CCN(c3ccccc3F)CC2)c1 (stereo unspecified)	i	4.4%	0.36
Cc1cccc(-c2ccc(C=Nc3c(C)n(C)n(-c4ccccc4)c3=O)o2)c1	i	-12%	-0.88
Cc1ccc2nc(-c3cccc(NC(=O)c4ccc5c(c4)OCCO5)c3)oc2c1	i	8.1%	-0.87
Cc1ccc(C2NC(=O)NC(O)(C(F)(F)F)C2C(=O)c2ccccc2)o1 (stereo unspecified)	i	-0.7%	0.91
O=C(O)CC1C(=O)NCCN1C/C=C/c1ccccc1 (stereo unspecified)	i	2.6%	0.64

Next compounds follow.
SMILES	MT1-MMP promoter	Hsc70	WNV protease inh
COC(=O)c1c(NC(=O)CCCC(=O)O)sc(C)c1C	i	3.5%	-0.06
CC(=O)c1ccc(N2C(=O)C3C(C2=O)C(C(=O)c2ccc(Cl)cc2)N2CCCC32)cc1 (stereo unspecified)	i	38%	-1.4
CC(C)(C)c1ccc(S(=O)(=O)n2c(CN3CCOCC3)nc3ccccc32)cc1	i	-0.8%	-1.1
CCCCN1CC(O)=C(c2nc3ccccc3s2)C1=N	i	-3.2%	1.7
Cc1cc(NCCCn2ccnc2)n2nc(C)c(-c3ccc(Cl)cc3)c2n1	i	2.4%	.
Cc1cc(C)cc(NC(=O)C2CCN(c3nc(C)cc(C)n3)CC2)c1	i	-2.7%	-0.89
c1ccc(-c2nc(N3CCOCC3)c3ccccc3n2)nc1	i	0.3%	0.31
Cc1nn2c(c1-c1ccccc1)NC1=C(C(=O)CCC1)C2c1ccccc1 (stereo unspecified)	i	2.5%	.
CCCCC1(C)Nc2ccccc2-c2nc3ccccc3n21 (stereo unspecified)	i	-4.0%	.
Cc1nc2c(=O)oc3ccccc3c2n1-c1ccccc1	i	9.1%	-0.31
C=CCN1C(=O)CN=C1Nc1ccc(OC)cc1OC	i	-12%	-0.63
CC1(C)CC(=O)N(CC(=O)NC2CCCC2)c2ccccc2S1(=O)=O	i	-1.0%	0.5
Cc1ccc2c(c1)-c1c(cnn1CC(=O)N1CCCN(Cc3ccccc3F)C1)CO2	i	1.6%	-1.8
Cc1cc(N2C(=O)C(=O)/C(=C(/O)c3ccccc3)C2c2cccs2)no1 (stereo unspecified)	i	1.6%	-0.14
O=C1CCCc2c1[nH]c1ccc(Cl)cc21	i	-1.3%	.
O=C(CSc1nnc(-c2ccco2)o1)N1CCOCC1	i	-3.6%	-2
CC(C)c1ccc(NC(=S)NCc2cccs2)cc1	i	-1.3%	.
CCOC(=O)c1cnc2nc[nH]n2c1=O	i	-5.7%	-0.05
O=C(O)c1cccc(S(=O)(=O)N2CCOCC2)c1	i	0.8%	-0.01
Cc1ccc(S(=O)(=O)NCCNC(=O)N2CCOCC2)cc1	i	0.8%	0.97

Ordered by molar mass (smallest number first): part of the list above.
SMILES	MT1-MMP promoter	Hsc70	WNV protease inh
CCOC(=O)c1cnc2nc[nH]n2c1=O	i	-5.7%	-0.05
O=C1CCCc2c1[nH]c1ccc(Cl)cc21	i	-1.3%	.
O=C(O)c1cccc(S(=O)(=O)N2CCOCC2)c1	i	0.8%	-0.01
C=CCN1C(=O)CN=C1Nc1ccc(OC)cc1OC	i	-12%	-0.63
Cc1nc2c(=O)oc3ccccc3c2n1-c1ccccc1	i	9.1%	-0.31
CCCCN1CC(O)=C(c2nc3ccccc3s2)C1=N	i	-3.2%	1.7
O=C(CSc1nnc(-c2ccco2)o1)N1CCOCC1	i	-3.6%	-2
COC(=O)c1c(NC(=O)CCCC(=O)O)sc(C)c1C	i	3.5%	-0.06
Cc1cc(C)cc(NC(=O)C2CCN(c3nc(C)cc(C)n3)CC2)c1	i	-2.7%	-0.89
CC1(C)CC(=O)N(CC(=O)NC2CCCC2)c2ccccc2S1(=O)=O	i	-1.0%	0.5
Cc1cc(N2C(=O)C(=O)/C(=C(/O)c3ccccc3)C2c2cccs2)no1 (stereo unspecified)	i	1.6%	-0.14
Cc1cc(NCCCn2ccnc2)n2nc(C)c(-c3ccc(Cl)cc3)c2n1	i	2.4%	.
CC(C)(C)c1ccc(S(=O)(=O)n2c(CN3CCOCC3)nc3ccccc32)cc1	i	-0.8%	-1.1

The list continues.
SMILES	MT1-MMP promoter	Hsc70	WNV protease inh
CCN(CCCNC(=O)c1[nH]c(C)c(C(C)=O)c1C)c1cccc(C)c1	i	4.8%	0.6
COC(=O)C1=C(C)N(C)C(=O)NC1c1ccccc1 (stereo unspecified)	i	-1.1%	-0.96
CCn1c(CNC(=O)COc2c(C)cccc2C)nnc1SCC(=O)Nc1nccs1	i	-5.5%	-0.21
CCCCNc1ncnc2c1cnn2-c1ccccc1	i	5.6%	-0.44
CC(=O)NC(CCS(C)(=O)=O)C(=O)Nc1cc(C)on1 (stereo unspecified)	i	-1.4%	0.64
CCOc1ccc(C(=O)Nc2c3c(nn2-c2cccc(C)c2C)CS(=O)C3)cc1 (stereo unspecified)	i	3.5%	-0.74
CC(C)n1c(N2CCN(C(=O)c3cccs3)CC2)nc2ccccc21	i	3.1%	-0.29
FC(F)(F)c1ccc(N2CCN(c3ncnc4c3nnn4Cc3ccccc3)CC2)nc1	i	-3.2%	-1.2
O=C1c2ccccc2S(=O)(=O)N1CCOc1ccccc1	i	-0.4%	0.13
CCOc1ccccc1NC(=O)CN1CCC(NC(=O)c2ccccc2)CC1	i	-2.7%	.
CC1CCN(S(=O)(=O)c2cccc(C(=O)NCc3cccs3)c2)CC1	i	1.6%	0.26
Cc1cc(C)cc(NC(=O)N2CCC(NC(=O)c3ccc(F)cc3)CC2)c1	i	3.9%	-0.66
CC(C)(C)C(=O)C(Oc1cccc2nonc12)n1cncn1 (stereo unspecified)	i	-6.6%	-1.1
Cc1ccc(C(=O)N2CCN(c3ccc(C(F)(F)F)cn3)CC2)cc1	i	-4.0%	.
COc1ccc(OCC(=O)N2CCN(C(=O)Cc3ccccc3)CC2)cc1	i	3.1%	0.46
Cc1nc(SCc2nnc(-c3ccc(Cl)cc3)o2)c2c3c(sc2n1)CCC3	i	-9.7%	0.4
Cc1ccc(-c2nnn(CC(=O)N(CC(=O)NC(C)C)c3cnc4ccccc4c3)n2)o1	i	-1.2%	0.1
Cc1ccccc1-n1c(N)cc(=O)[nH]c1=S	i	1.4%	-1.4
CCOC(=O)N1CCC(N(C(=O)Nc2cccc(OC)c2)C(C)CC)CC1 (stereo unspecified)	i	-3.5%	-0.04
O=C(CCn1[nH]c(=O)c2ccccc2c1=O)N1CCOCC1	i	-3.7%	.
CCN1/C(=C(\O)c2ccccc2)C(=O)c2ccccc2S1(=O)=O	i	-2.6%	0.49
Clc1ccc(NCc2nnc3n2CCCCC3)cc1	i	-1.2%	0.54
Cc1ccc(-c2nnc(OCCN3CCOCC3)c3ccccc23)cc1	i	6.9%	1.2
O=C(NCc1nc(-c2ccccc2)no1)c1ccc(Br)o1	i	2.6%	1.3
O=C1CC(N2CCC(c3nc4ccccc4s3)CC2)C(=O)N1Cc1ccccc1 (stereo unspecified)	i	-1.8%	.

Whole records, quoted from the list. Values in the order: MT1-MMP promoter | Hsc70 | WNV protease inh
O=C1CC(N2CCC(c3nc4ccccc4s3)CC2)C(=O)N1Cc1ccccc1 (stereo unspecified) is entered as i | -1.8% | .
CCN1/C(=C(\O)c2ccccc2)C(=O)c2ccccc2S1(=O)=O is entered as i | -2.6% | 0.49

Bioassay records: PubChem, several laboratories
